# Rango release inh: qHTS Assay for Inhibitors of RanGTP induced Rango (Ran-regulated importin-beta cargo) - Importin beta complex dissociation | Biochemical FRET Rango-importin beta, RanGTP-induced dissociation | Snurportin-1 (Homo sapiens) + GTP-binding nuclear protein Ran (Homo sapiens) + Importin … | Potency, µM (titrated, usually from 46.1 µM), inactives show top-dose activity change, negative = inhibition | 0.071% of 340,000 active; active means falling FRET ratio curve, often poorly fitted, with flat reads before Ran was added; inconclusive means other falling curves, or compound fluorescence or quenching; inactive means flat or rising ratio curve;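 note: potency is the fitted concentration of half-maximal effect; % of control where 0% means no effect; nearly all actives have a fitted effect of over 45% in size; -100% = wells without RanGTP and RCC1; the record marks most hits as doubtful in a second field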
#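 Quantitative HTS using a FRET biosensor: 0.1 uM Rango, 0.25 uM importin beta, 0.6 uM Ran, 2 mM GTP, 0.2 uM RCC1 final, PBS with DTT, Tween-20 and BSA. Post-read taken 45 min after Ran addition.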
# GLA inh pH 4.5: qHTS Assay for Inhibitors of Human alpha-Galactosidase at pH 4.5 | activity change, negative = inhibition, % at 105 µM | purified enzyme, 4-MU-alpha-Gal fluorescence, pH 4.5 | Alpha-galactosidase A (Homo sapiens), P06280 | 230,000 tested, under 10 active | AID 1467, 2008; inconclusive = small, poorly fitted or top-dose-only inhibition, or a rising curve; inactive = flat fitted curve, though single readings scatter; no compound was filed as active;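 note: 0% = full activity with enzyme and -100% = basal without enzyme; dose as in the result columns while the protocol names 77 µM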
# miR-21 reporter: qHTS Assay for Modulators of miRNAs and/orActivators of miR-21; AID 2288, 2010; HeLa miR-21 FLuc reporter, luciferase, 48 h; Potency, µM (doses to about 38.3 µM), without a hit: at the top dose reporter change, positive = more light; 340,000 tested, under 10 active; active = well fitted rising curve with a large enough effect; inconclusive = small, poorly fitted or top-dose-only effect; inactive = no such curve, though single readings can be large or run the other way;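 note: % of control where 0% means no effect; miR-21 action dims this reporter so a rising signal means less miR-21 action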
#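 Using DMEM plus 10% FBS, HeLa miR-21-FLuc cells are incubated with test compounds (final up to about 40uM) for 48 hours; firefly luciferase signal is then imaged following reagent-mediated lysis.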
# Rango-impB inh: qHTS Assay for Inhibitors of Rango (Ran-regulated importin-beta cargo) - Importin beta complex formation | Rango CFP/YFP FRET sensor + importin beta, 45 min | Potency, µM (titrated, usually from 92.2 µM), for the others: at the highest dose inhibition of complex formation | 0.031% of 340,000 active; active = rising FRET ratio curve, often small or poorly fitted; inconclusive = mostly compound fluorescence or quenching in the first reads; inactive = flat curves in all reads;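 note: potency is the fitted concentration of half-maximal effect; 0% = DMSO wells and 100% = buffer wells lacking importin beta; nearly all actives have a fitted effect of over 15% in size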
# Target sequence (Q14974 whole entry, looked up): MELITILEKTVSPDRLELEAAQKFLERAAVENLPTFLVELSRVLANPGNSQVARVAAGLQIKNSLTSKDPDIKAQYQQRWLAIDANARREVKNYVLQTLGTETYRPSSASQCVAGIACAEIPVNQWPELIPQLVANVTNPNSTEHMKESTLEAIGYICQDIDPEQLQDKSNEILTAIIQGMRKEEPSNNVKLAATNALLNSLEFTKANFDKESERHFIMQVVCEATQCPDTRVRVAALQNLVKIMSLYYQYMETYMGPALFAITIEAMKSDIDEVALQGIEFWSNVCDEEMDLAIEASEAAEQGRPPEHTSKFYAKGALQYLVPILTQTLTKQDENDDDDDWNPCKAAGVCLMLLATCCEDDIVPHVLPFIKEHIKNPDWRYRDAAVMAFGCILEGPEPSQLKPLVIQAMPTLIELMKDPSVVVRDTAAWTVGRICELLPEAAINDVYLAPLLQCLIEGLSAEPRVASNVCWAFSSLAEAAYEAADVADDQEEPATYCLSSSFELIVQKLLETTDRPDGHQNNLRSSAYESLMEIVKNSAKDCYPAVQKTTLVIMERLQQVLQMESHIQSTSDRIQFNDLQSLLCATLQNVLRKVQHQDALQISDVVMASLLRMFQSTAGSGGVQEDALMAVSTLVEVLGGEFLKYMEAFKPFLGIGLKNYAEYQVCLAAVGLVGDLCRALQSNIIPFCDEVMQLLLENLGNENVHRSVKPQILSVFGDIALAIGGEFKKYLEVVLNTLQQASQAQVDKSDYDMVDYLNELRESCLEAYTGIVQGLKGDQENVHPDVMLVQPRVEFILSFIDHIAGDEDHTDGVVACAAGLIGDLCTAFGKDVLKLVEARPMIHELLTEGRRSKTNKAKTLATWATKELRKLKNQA
#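 FRET biosensor Rango (snurportin 1 IBB between N-terminal EYFP and C-terminal Cerulean), 50 nM in PBS/1 mM DTT/0.02% Tween-20/0.1% BSA, preincubated 5 min RT with compound; 0.125 microM importin beta added, 45 min RT, CFP/YFP FRET ratio read.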
# The depositor's hits bear a star; ? = inconclusive; · = no result given; & = joins results of further samples; [ ] = another dose, or the depositor's remark. Some of the compounds tested; the hit share may differ from the screen's.
SMILES,Rango release inh,GLA inh pH 4.5,miR-21 reporter,Rango-impB inh
Fc1ccc(-c2nnc(SCc3cccnc3)o2)cc1,1%,15,-51%,-2.5%
CC1CN(S(=O)(=O)c2cccc(C(=O)OC/C(O)=C(\C#N)c3nc4ccccc4[nH]3)c2)CC(C)O1 (stereo not given),-21%,6,-5%,?
OC1(c2ccc(Cl)cc2)CCN(Cc2nc(-c3cnccn3)no2)CC1,-21%,7,1%,7.8%
COc1ccc(N(C(=O)CNC(=O)c2ccco2)C(C(=O)NCC2CCCO2)c2ccc(OC)c(OC)c2)cc1 (stereo not given),-2%,·,-1%,?
O=C1CC(=O)N2CCSC2=N1,-12%,·,·,-0.5%
Oc1ccc(C=Nc2ccccc2-c2nc3ccccc3[nH]2)c(O)c1,-10%,13,-18%,0.0%
Nc1c(Br)cc2oc(-c3ccccc3)nc2c1Br,-5%,-12,-71%,0.9%
CCOC(=O)C(C(=O)OCC)[C@@H]1CS(=O)(=O)C[C@H]1C(C(=O)OCC)C(=O)OCC,-7%,1,0%,1.5%
COc1ccc(C2CC(=O)C(C=NCCO)=C(O)C2)cc1 (stereo not given),-14%,·,0%,-1.0%
O=C(NCc1ccc2c(c1)OCO2)c1cccc(S(=O)(=O)N2CCCC2)c1,1%,·,-4%,4.2%
COc1cc(C2C(C(=O)c3ccc(C)o3)=C(O)C(=O)N2c2cc(C)on2)ccc1O (stereo not given),-1%,-23,-17%,?
COc1ccc2oc(=O)c(C(=O)N3CCN(C(=O)c4ccco4)CC3)cc2c1,3%,·,1%,?
Cc1ccc(C(=O)NCC(=O)Nc2cc(C)ccn2)cc1,-7%,·,·,2.7%
COC(=O)c1ccncc1N,-5%,?,0%,-1.8%
CCOC(=O)C1=C(O)/C(=C/N(C)C)N=C1C,-12%,-6,2%,?
O=C(NCc1ccccc1)N(Cc1cc2cc3c(cc2[nH]c1=O)OCO3)CC1CCCO1 (stereo not given),-21%,1,-3%,0.1%
O=C(O)c1cc(C(F)(F)F)nc2c(C(F)(F)F)cccc12,1%,0&2,-1%,0.4%
CCOc1ccccc1NC(=O)CSc1nnc(-c2cnccn2)n1CC,4%,-4,-15%,-0.5%
CC(=O)c1cc2c(cc1NC(=O)CN1CCN(c3cccc(C(F)(F)F)c3)CC1)OCO2,7%,-6,-11%,9.4%
COc1ccc(-c2cc(C(=O)Nc3cc(S(N)(=O)=O)ccc3C)c3ccccc3n2)cc1OC,-3%,·,·,3.6%

# Random excerpt: two records from the list, in no set order.
SMILES,Rango release inh,GLA inh pH 4.5,miR-21 reporter,Rango-impB inh
O=C1CC(=O)N2CCSC2=N1,-12%,·,·,-0.5%
CC1CN(S(=O)(=O)c2cccc(C(=O)OC/C(O)=C(\C#N)c3nc4ccccc4[nH]3)c2)CC(C)O1 (stereo not given),-21%,6,-5%,?

# Further records.
SMILES,Rango release inh,GLA inh pH 4.5,miR-21 reporter,Rango-impB inh
C=CCn1c(SCC(=O)N2CCOCC2)nnc1C(C)NC(=O)c1ccccc1 (stereo not given),1%,·,2%,0.0%
Cn1cnc2nc(Cl)nc(Cl)c21,6%,·,·,1.0%
O=S(=O)(NCC(c1ccco1)N1CCN(c2ccccc2F)CC1)c1ccc(F)cc1 (stereo not given),-13%,-2,-2%,5.2%
CC(C)(C)c1nnc(N/N=C/c2ccccc2O)n(N)c1=O,-8%,3,-6%,-4.2%
O=C(Nc1ccccc1Sc1ccccc1)c1ccc(F)cc1,22%,-6,-13%,2.2%
COc1ccc(S(=O)(=O)N2CCN(C(=O)c3ccc(NC(C)=O)cc3)CC2)cc1,-2%,·,·,1.1%
O=C(Cn1ccc2ccccc2c1=O)NCC1COc2ccccc2O1 (stereo not given),8%,-1,-13%,?
O=S(=O)(c1ccc2c(c1)OCCO2)N1CCc2ccccc21,-2%,-6,-2%,0.0%
COc1cc(NC(=S)NCC2CCCO2)c(OC)cc1Cl (stereo not given),9%,3,1%,0.5%
Nc1ncnc2c1ncn2[C@@H]1O[C@H](CNCc2ccc(-c3cc(C(F)(F)F)ccc3Cl)o2)[C@@H](O)[C@H]1O,-4%,·,·,-2.1%
COc1cc(NC(=O)c2ccccc2[N+](=O)[O-])c(C(=O)O)cc1OC,-1%,4,4%,-1.2%
O=C1CC(c2ccccc2)C(C(=O)O)N1 (stereo not given),20%,10,1%,-2.0%
CCn1c(C(c2ccccc2)c2ccccc2)n[nH]c1=S,0%,-1,-3%,-0.1%
CC(C)(C)OC(=O)N1CCCC1C(=O)O (stereo not given),1%,-8,-2%,-1.4%
CC(=O)NCCCc1nc2ccccc2n1Cc1ccccc1F,-8%,-6,1%,0.1%
COc1ccc(NC(=O)c2ccc(-n3cccn3)c([N+](=O)[O-])c2)cc1,-15%,1,-14%,1.3%
CCCc1cc(CNC(=O)C2CCC(=O)N(CCc3cccc(F)c3)C2)on1 (stereo not given),9%,·,-1%,-4.0%
CCOc1ccc(S(=O)(=O)NCc2cccnc2)cc1NC(=O)c1ccccc1,-12%,·,·,-2.4%
COc1ccccc1-n1cnc(N)c1C(C)=O,11%,9,-2%,0.6%
CCOC(=O)c1cnn(-c2ccc(C(C)C)cc2)c1NC(=O)C1CCC1,-1%,-27,-20%,-0.1%
CN(CC(=O)Nc1ccc(F)cc1)C(=O)CNC(=O)C1CCCCC1,21%,·,·,-1.2%
Cc1nc2ccc(NC(=S)NC(C)C)cc2nc1C,0%,7,-16%,-1.4%
CCOC(=O)c1c(NC(=O)COC(=O)c2ccccn2)sc(C(=O)N(C)C)c1C,-18%,·,·,1.9%
Cc1nc(-c2ccc(F)cc2)c(CC(=O)N(C)CC(=O)Nc2ccccc2C(F)(F)F)s1,?,·,·,-4.3%
CN(Cc1cccs1)c1nc(-c2cccnc2)nc2ccccc12,-5%,1,6%,0.9%
COc1cc(/C=N/NC(N)=S)ccc1OCC(=O)Nc1ccc(C)cc1,0%,1,-5%,-2.3%
COc1ccc(OC)c(S(=O)(=O)Nc2cccc3c(O)cccc23)c1,1%,·,·,0.3%
COc1ccc(CC(=O)OCC(=O)NCCc2ccccc2)cc1OC,46%,-13,-1%,0.0%
O=C1C(=O)N(CCN2CCOCC2)C(c2cccnc2)/C1=C(/O)c1ccccc1 (stereo not given),·,13,-5%,·
O=C(O)C1CCN(C(=O)CSc2nc3ccccc3c(=O)n2Cc2ccccc2)CC1,1%,·,4%,3.9%
O=c1c2ccccc2nc(/C=C/c2cccnc2)n1CCc1ccccc1,-17%,-3,16%,0.1%
O=C(NC12CC3CC(CC(C3)C1)C2)c1cccc(OC(F)F)c1,3%,·,-32%,2.2%
CCn1c(=O)c(C(C)=O)nc2ccccc21,?,-8,-4%,?
O=C(Cc1ccccc1)NN1C(=O)C2C3C=CC(C4CC34)C2C1=O (stereo not given),2%,-8,-9%,?
O=C(O)c1ccc(/C=N/NC(=O)c2ccc(CN3c4cccc5cccc(c45)S3(=O)=O)cc2)cc1,6%,5,-11%,1.7%
CCCOC(=O)c1ccc(NC(=O)c2ccccc2[N+](=O)[O-])cc1,-1%,-10,-32%,-6.0%
C#CCN(Cc1ccco1)C(=O)c1ccc(OC2CCN(Cc3ccccn3)CC2)cc1,-1%,·,·,?
COCCNC(=O)c1ccc2c(c1)CCN2S(C)(=O)=O,-7%,3[21.1 µM],-1%,0.1%
O=S(=O)(c1cccs1)N1CCCc2ccccc21,-1%,-8,-2%,2.2%
CCCC(=O)NC(c1ccco1)c1c(O)ccc2ccccc12 (stereo not given),9%,-6,-1%,-0.1%
COc1ccc(-n2cc(-c3ccc(Br)cc3)[nH]c2=S)cc1,2%,-3,-5%,-0.9%
COc1ccccc1CNC(=O)CSCc1cnn(-c2ccccc2)c1-n1cccc1,-14%,3,9%,7.1%
COc1cc(C)ccc1OCCOCCOc1cccc2ccc(C)nc12,-2%,-1,-1%,3.3%
COc1ccc(NC(=O)C(=O)N2N=C(C(C)C)CC2(O)C(F)(F)F)cc1 (stereo not given),-13%,15,-3%,-0.7%
CCOc1ccc(C(=O)NCC(=O)NCC(c2ccco2)N2CCCCC2)cc1OCC (stereo not given),-8%,·,·,1.9%
CCN(c1ccccc1)S(=O)(=O)c1ccc(Cl)c(C(=O)NCCc2ccc(OC)cc2)c1,-3%,15,8%,-3.3%
COc1cc(C(=O)Nc2ccc(S(=O)(=O)Nc3nccc(C)n3)cc2)cc(OC)c1OC,11%,-5,-4%,-2.4%
COc1ccc(C(C)(C)C)cc1NS(=O)(=O)c1cccc2cccnc12,-3%,·,-4%,-2.8%
O=C(C1CCN(C2CCN(Cc3ccc4c(c3)CCO4)CC2)CC1)N1CCCC1,-9%,3,0%,1.8%
O=C1CN(C(=O)c2ccc3nc(Cc4cccc(Cl)c4)oc3c2)CCN1,-4%,·,-5%,-0.2%
O=C(c1ccc(CS(=O)c2ccc(F)cc2)o1)N1CCN(C2CCCCC2)CC1 (stereo not given),-2%,·,1%,?
COc1ccccc1Cc1noc(COc2cccc(C)c2C)n1,2%,-5,-19%,2.9%
O=C(NC1CCCCC1)c1cccc(S(=O)(=O)N2CCOCC2)c1,-5%,-2,-10%,3.2%
Cc1nc2nc(N)nn2c(C)c1C/C=C/c1ccccc1,8%,-5,-8%,4.7%
COc1cc(NC(=O)[C@@H]2CCCN2S(=O)(=O)c2cccc3cccnc23)cc(OC)c1OC,10%,·,·,-0.5%
CC(C)(C)c1cc[n+](/C(C(=S)Nc2ccccc2F)=C(/[O-])c2ccc3c(c2)OCCO3)cc1,0%,7,-37%,1.8%
COc1ccc(C2=Nn3c(C)nnc3SC2)cc1,-3%,·,-4%,2.0%
Cc1cc(Cl)ccc1Nc1ncccc1C(N)=O,11%,-6,-89%,-3.5%
COC(=O)c1ccc(CSc2nc3c(c(=O)n2-c2ccc(Br)cc2)SCC3)o1,6%,-6,-2%,-2.6%
CSc1ccc(C#N)cc1NC(=O)c1ccc(Cl)cc1Cl,29%,5,-8%,1.4%

# An excerpt from above in order of their number in GLA inh pH 4.5, largest number first:
SMILES	GLA inh pH 4.5
COc1ccc(NC(=O)C(=O)N2N=C(C(C)C)CC2(O)C(F)(F)F)cc1 (stereo not given)	15
CSc1ccc(C#N)cc1NC(=O)c1ccc(Cl)cc1Cl	5
COc1ccccc1CNC(=O)CSCc1cnn(-c2ccccc2)c1-n1cccc1	3
COc1ccc(-n2cc(-c3ccc(Br)cc3)[nH]c2=S)cc1	-3
COc1ccccc1Cc1noc(COc2cccc(C)c2C)n1	-5
Cc1cc(Cl)ccc1Nc1ncccc1C(N)=O	-6

# Additional compounds
SMILES,Rango release inh,GLA inh pH 4.5,miR-21 reporter,Rango-impB inh
O=C(/C=C/c1cccs1)Nc1nccs1,-9%,0,-49%,-0.2%
O=[N+]([O-])c1ccc2[nH]c(O)c(N=NC3CCS(=O)(=O)C3)c2c1 (stereo not given),-5%,-1,1%,-0.3%
O=C(O)c1ccccc1OCc1ccccc1Cl,9%,7,0%,-0.4%
COc1ccc(-n2c(CN3CCC(C(N)=O)CC3)nc3ccc([N+](=O)[O-])cc3c2=O)c(OC)c1,-1%,-7,-9%,0.9%
Cc1ccc(N(C)C(=O)CCS(=O)(=O)c2ccc3c(c2)oc(=O)n3C)cc1,1%,·,1%,3.1%
COC(=O)Nc1snnc1C,5%,-9,0%,-1.4%
CC(=O)Nc1scc(C)c1-c1nc2ccccc2s1,-2%,-30,-4%,-0.4%
CCC(=O)c1cc2c(cc1NC(=O)c1cccs1)OCCO2,-5%,2,1%,-2.4%
Cc1ccc(N2CC(C(=O)Nc3ccc(N(C)C)cc3)CC2=O)cc1C (stereo not given),2%,-4,1%,0.4%
COc1ccccc1CC(Cc1nc2ccccc2[nH]1)c1nc2ccccc2[nH]1 (stereo not given),0%,-9&3,12%,3.2%
Cn1cc(/C=N\NC(=O)C2COc3ccccc3O2)c2ccccc21 (stereo not given),·,2,16%,·
O=C(Oc1ccc([N+](=O)[O-])cc1)C1CC(=O)N(c2ccc3c(c2)OCCO3)C1 (stereo not given),2%,·,·,-0.1%
